High-throughput results as filed in PubChem.
D2 potentiator – positive allosteric modulators of human D2 dopamine receptor | DiscoveRx D2 beta-arrestin cells, luminescence, 90 min; 100% = 57 uM dopamine signal | 360,000 tested, 0.23% active | potentiation, % (test concentration not listed); active = potentiation of 50% or more; inconclusive = 30% to 50%; inactive = 30% or less;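 note: compound concentration not given in the record; tested on top of an EC20 dose of dopamine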
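PathHunter D2 cells, attached overnight at 37 deg C, received compound in DMSO plus dopamine at EC20 (50 nM final) for 90 min at 37 deg C. Beta-arrestin recruitment was read as luminescence after 1 h with detection reagent at ambient temperature.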
D2 ag – agonists of human D2 dopamine receptor (beta-arrestin). P14416. DiscoveRx PathHunter D2 beta-arrestin, luminescence, 90 min; 100% = 57 uM dopamine signal. activation, % (no concentration beside the values). 360,000 tested, 0.084% active; in the data active = activation above about 40%; inconclusive = about 15% to 40%; inactive = below about 15%; note: compound concentration not given in the record; the text of the record calls up to 30% inactive
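Agonist mode: compounds alone added to overnight-plated D2 PathHunter cells for 90 min at 37 C, with 57 uM final dopamine (EC100) defining full response. Beta-arrestin recruitment detected by chemiluminescent reagent, read after 1 h at ambient temperature.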
Six1-Eya2 blk – inhibitors of human Six1/Eya2 interaction. Q15475+O00167. AlphaScreen GST-Six1/His-Eya2 binding, biochemical; active compounds read low; control for the full effect not named in the record. activity change, % (concentration not given with the values). 360,000 tested, 0.56% active. AID 651725; in the data active = activity change below about -65%; inconclusive = about -30% to -65%; inactive = above about -30%; note: % is set by controls: 0 for no effect and ±100 for the full control effect
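AlphaScreen luminescence read after one hour at 37 °C in darkness. Pin-transferred compounds met GST-Six1 and His-Eya2 protein (5X stock 250 nM/500 nM) plus glutathione donor and Ni-chelate acceptor beads (5X, 50 ug/mL).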
Sfp PPTase inh – inhibitors of Bacillus subtilis Sfp phosphopantetheinyl transferase. Biochemical Sfp PPTase activity, qHTS. Q9F4F7. AID 1490. 310,000 tested, 3.5% active. Potency, µM, for inactives: max response, negative = inhibition, hits mostly inhibitors; active = well fitted inhibition curve with a large enough effect; inconclusive = small, poorly fitted or top-dose-only effect, or another doubt; inactive = no such curve, though single readings can be large or run the other way;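 note: the enzyme is Sfp with the accession as filed and its product quenches rhodamine fluorescence; potency is the fitted concentration of half-maximal effect; 0% = enzyme reaction without inhibitor and -100% = no enzyme wells; top concentration of the series not given in the record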
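Fluorescence-quenching assay with 15 nM Sfp, 5 uM rhodamine-CoA and 12.5 uM BHQ-2-labelled ybbR peptide in pH 7.6 Hepes/MgCl2 buffer. Enzyme was pre-incubated with compound for 15 min at room temperature. Rate was taken from the 30-min fluorescence change (525/598 nm).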
TRPV1 PAM – enhances activation of the human vanilloid receptor TRPV1 | Q8NER1 | TRPV1-expressing cells, Fluo-8 calcium influx, capsaicin EC20 potentiation; host cell line not named in the record; control for the full effect not named in the record | potentiation, % at 8.33 µM | 320,000 tested, 0.02% active; active means potentiation above 80%; inconclusive means 30% to 80%; inactive means below 30%; note: 0% is about no effect
Target sequence (Q8NER1 whole entry, looked up): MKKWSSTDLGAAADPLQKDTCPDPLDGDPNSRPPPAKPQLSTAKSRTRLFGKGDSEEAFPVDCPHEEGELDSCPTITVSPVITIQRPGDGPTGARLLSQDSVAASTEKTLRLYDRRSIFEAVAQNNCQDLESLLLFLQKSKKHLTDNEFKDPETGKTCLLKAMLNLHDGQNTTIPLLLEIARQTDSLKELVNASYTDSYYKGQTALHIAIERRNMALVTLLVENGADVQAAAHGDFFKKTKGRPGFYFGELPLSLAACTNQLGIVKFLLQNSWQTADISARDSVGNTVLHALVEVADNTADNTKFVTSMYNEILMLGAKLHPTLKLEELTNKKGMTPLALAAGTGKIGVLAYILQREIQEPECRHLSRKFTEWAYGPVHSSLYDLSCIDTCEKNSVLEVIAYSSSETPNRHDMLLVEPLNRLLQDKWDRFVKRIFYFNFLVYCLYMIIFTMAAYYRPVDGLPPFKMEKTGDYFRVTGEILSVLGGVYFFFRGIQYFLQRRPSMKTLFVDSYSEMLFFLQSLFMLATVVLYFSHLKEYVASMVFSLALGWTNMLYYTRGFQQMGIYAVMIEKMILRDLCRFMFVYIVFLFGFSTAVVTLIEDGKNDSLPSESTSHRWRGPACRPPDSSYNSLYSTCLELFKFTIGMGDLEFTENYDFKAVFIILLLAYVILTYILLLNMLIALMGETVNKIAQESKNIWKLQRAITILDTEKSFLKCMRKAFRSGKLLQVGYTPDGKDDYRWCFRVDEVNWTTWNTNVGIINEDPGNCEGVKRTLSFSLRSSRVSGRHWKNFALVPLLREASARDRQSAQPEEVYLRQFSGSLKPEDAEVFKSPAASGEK
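TRPV1-expressing cells were cultured overnight at 35.5C and loaded with Fluo-8 calcium dye for 40 to 90 min at room temperature. After a 10 s baseline, compound was added and calcium influx was read kinetically for 3 min (ex 480/em 520 nm).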
PINK1 expr mod – PINK1 expression modulation | 410,000 tested, 0.2% active | AID 624263 | Potency, µM (series often up to 76.6 µM), for the others: at the highest dose activation (PINK1 increase), actives largely listed as activators | PINK1 immunofluorescence, high-content cytometry, 24 h; active = well fitted activation curve with a large enough effect; inconclusive = small, poorly fitted or top-dose-only effect; inactive = flat fitted curve, though single readings scatter; cell line not stated here;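 note: potency is the fitted concentration of half-maximal effect; % of control where 0% means no effect; nearly all actives have a fitted effect of over 65% in size; a mitochondrial uncoupler was the plate control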
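Measures PINK1 amount and localization on or inside mitochondria by immunofluorescence. Stable cells get compounds at 5 concentrations for 24 hours before fixation and staining; CCCP controls included.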
CtBP-E1A blk – blocks the CtBP interaction with E1A. 340,000 tested, 0.49% active. AlphaScreen GST-E1A/His-CtBP binding, 1536-well; active compounds read low; control for the full effect not named in the record. activity change, % (test concentration not listed); in the data active means activity change below about -65%; inconclusive means about -30% to -65%; inactive means above about -30%; note: % is set by controls: 0 for no effect and ±100 for the full control effect
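Homogeneous bead-based format: GST-tagged E1A captured on glutathione donor beads, His-tagged CtBP on nickel acceptor beads; compounds precede bead addition by 2 h at 37 °C.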
* = called active by the depositor; ? = inconclusive; / = not tested or not shown; & = joins results of further samples; ! = not active in a repeat; [ ] = remark or other dose.

SMILES	D2 potentiator	D2 ag	Six1-Eya2 blk	Sfp PPTase inh	TRPV1 PAM	PINK1 expr mod	CtBP-E1A blk
c1ccc(-c2nc(C3CCCCC3)c3sccc3n2)cc1	-14	-1.1	2	/	/	3.9%	5
CCOC(=O)c1ccc([N+](=O)[O-])c(CS(=O)(=O)c2ccc(Cl)cc2)c1	5	?	-12	14%	-7	2.3%	/
COc1c(O)cnn(-c2ccccc2)c1=O	-1	-2.9	2	11%	-33	0.1%	9
COc1ccc(CCC(=O)Nc2ccc(S(=O)(=O)Nc3ncccn3)cc2)cc1	-1	-1.7	2	/	-1	3.2%	-4
NC(=O)C1CCN(C(=O)c2cc(-c3ccccc3Cl)nc3ccccc23)CC1	-5	-4.8	-10	/	/	-1.0%	-1
CCOc1ccc(N(CC(=O)NC2CCCC2)C(=O)c2ccc(C)s2)cc1	-10	-7.5	-22	9%	-5	0.5%	0
Cc1ccc(F)cc1-c1cc(C(=O)NCc2cc(C(F)(F)F)cc(C(F)(F)F)c2)[nH]n1	-4	-0.8	0	/	/	?	-3
O=C(O)C1CCC(=O)N(C2CCCCC2)C1c1ccccc1Cl (stereo not given)	-8	-5.5	0	26%	-3	0.0%	-5
COc1ccc(OC)c(CCNC(=O)CCc2nnc3ccc(N4CCCCC4)nn23)c1	-5	1.7	8	8%	?	1.9%	6
COc1ccc(CC2(CO)CCN(Cc3cccc(OC)c3OC)CC2)cc1	-16	-7.1	-1	6%	0	-0.2%	3
COC(=O)c1cc(C(=O)OC)cc(-n2c(C)cc(C(=O)CC#N)c2C)c1	-1	-1.6	-24	-5%	0	/	7
CC[C@@H](NCCCn1cnc2c(SC)ncnc21)c1ccccc1	/	2.2	-3	/	/	0.4%	7
COc1cc(/C=N/NC(=O)CCn2cnc(-c3ccccc3)c2-c2ccccc2)ccc1O	-16	-7.5	?	-13%	3	0.6%	?
CN1CCN(C(=O)c2ccc(N3CCCC3=O)cc2)CC1	-2	-2.2	-1	25%	0	4.1%	4
CN(C)S(=O)(=O)c1cccc(NC(=O)CSc2nnnn2-c2ccccc2)c1	-25	-3.3	8	12%	-2	1.5%	/
CCOC(=O)NC1(C(F)(F)F)NC(=O)N(C2CCCCC2)C1=O (stereo not given)	-8	-1.0	1	-2%	-3	-0.1%[38.3 µM]	7
CCc1ccc(CN(C)C(=O)c2cc(S(=O)(=O)N3CCOCC3)ccc2N2CCCC2)cc1	-14	5.5	-4	/	-8	4.3%	0
Cc1cc(Cl)ccc1N(CC(=O)NCc1ccccc1)S(C)(=O)=O	-4	-3.4	13	15%	2	5.3%	2
COc1ccc(-n2c(=S)[nH]c3[nH]ncc3c2=O)cc1	-9	-1.5	6	50µM*	-2	-1.0%	0
CN1CCN(C(=S)NC(=O)c2ccc(-c3ccccc3)cc2)CC1	-22	-0.6	-2	-25%	-1	-0.6%	8

Sfp PPTase inh: entries above that show a hit
SMILES | D2 potentiator | D2 ag | Six1-Eya2 blk | Sfp PPTase inh | PINK1 expr mod | CtBP-E1A blk
COc1ccc(-n2c(=S)[nH]c3[nH]ncc3c2=O)cc1 | -9 | -1.5 | 6 | 50µM* | -1.0% | 0

An excerpt from above, limited to Sfp PPTase inh, CtBP-E1A blk and D2 potentiator:
| Molecule | Sfp PPTase inh | CtBP-E1A blk | D2 potentiator |
| --- | --- | --- | --- |
| c1ccc(-c2nc(C3CCCCC3)c3sccc3n2)cc1 | / | 5 | -14 |
| CCOC(=O)c1ccc([N+](=O)[O-])c(CS(=O)(=O)c2ccc(Cl)cc2)c1 | 14% | / | 5 |
| COc1c(O)cnn(-c2ccccc2)c1=O | 11% | 9 | -1 |

Continuation:
SMILES	D2 potentiator	D2 ag	Six1-Eya2 blk	Sfp PPTase inh	TRPV1 PAM	PINK1 expr mod	CtBP-E1A blk
Cn1ccc2cc(NC(=O)Nc3cccnc3)ccc21	0	-7.1	-12	-5%&-6%	/	6.1%	-6
O=C(CCCn1c(=S)[nH]c2ccsc2c1=O)Nc1ccc2c(c1)OCCO2	-18	-14	-13	?	20	1.2%	5
C=CCn1cc(C(C)=O)c(=O)[nH]c1=O	-2	-5.7	25	5%	11	-0.3%	-11
O=C(COC(=O)c1ccc(Br)cc1)NCc1ccc(F)cc1	0	0.9	2	11%	-16	8.5%	6
CCCC(=O)NCC(c1cccs1)S(=O)(=O)c1ccc(C)cc1 (stereo not given)	-22	0.1	-4	1%	7	-1.0%	2
Cn1c(=O)c2cc(NC(=S)NC3CCCCC3)ccc2n1Cc1ccc(F)cc1	-6	11	-1	/	/	0.7%	5
Cc1cc(=O)oc2cc(OCC(=O)NC3(C#N)CCCCC3)ccc12	-12	-1.8	-1	/	/	1.1%	-5
CC(=O)Nc1ccc(S(=O)(=O)NCC(=O)OCC(=O)NCCc2ccccc2)cc1	-15	-2.3	10	/	/	1.8%	-2
CN(N)c1nc2ccccc2nc1C(F)(F)F	-4	-3.2	0	6%	-26	1.2%	/
COc1cc(-c2nc3ccccn3c2NCC2CCCO2)ccc1O (stereo not given)	22	3.3	-6	-4%	4	12%[38.3 µM]	-2
c1ccc2c(c1)nc(-c1ccncc1)n1nnnc21	-8	0.3	-2	14%	-3	-6.6%[38.3 µM]	-8
Cc1cccc(C(=O)NCc2nnc(SCC(=O)Nc3nncs3)n2C)c1	-7	-3.2	4	7%	-4	0.2%	-17
CCOc1ccc(NC(=O)c2csc3c2CCCC3)cc1	-5	-1.3	5	12%	-17	9.0%	8
COC(=O)CSC1=C(C#N)C(=O)NC2(CCCCC2)S1	-12	-4.6	-1	25µM*	-7	4.3%	9
c1ccc(-c2cc(N3CCCCCC3)n[nH]2)cc1	-15	-0.2	-11	-11%	/	-5.2%[38.3 µM]	-13
CNS(=O)(=O)c1cccc(C(=O)NCC2(N3CCCCC3)CCCCC2)c1	-20	-2.1	7	10%	-1	1.0%	1
Cc1c2c(nc3c(C)cccc13)OC(C)C2 (stereo not given)	0	0.4	0	-4%	-4	3.3%	6
CCCC(c1nnnn1C(C)(C)C)N1CCN(Cc2ccccc2OC)CC1 (stereo not given)	-17	-1.9	-2	56µM*	-5	1.5%	-1
S=c1nc[nH]c2c1sc1nc(-c3ccccc3)c3c(c12)CCCC3	-9	1.5	10	0%	2	0.5%	/
O=C(Nc1cccc2ccccc12)c1ccccc1	0	-2.3	-2	15%	-18	1.3%	5

4 entries drawn at random from the list so far, as already listed:
SMILES	D2 potentiator	D2 ag	Six1-Eya2 blk	Sfp PPTase inh	TRPV1 PAM	PINK1 expr mod	CtBP-E1A blk
CN(N)c1nc2ccccc2nc1C(F)(F)F	-4	-3.2	0	6%	-26	1.2%	/
Cn1c(=O)c2cc(NC(=S)NC3CCCCC3)ccc2n1Cc1ccc(F)cc1	-6	11	-1	/	/	0.7%	5
CCOc1ccc(NC(=O)c2csc3c2CCCC3)cc1	-5	-1.3	5	12%	-17	9.0%	8
Cc1c2c(nc3c(C)cccc13)OC(C)C2 (stereo not given)	0	0.4	0	-4%	-4	3.3%	6

Remaining list, next part.
SMILES	D2 potentiator	D2 ag	Six1-Eya2 blk	Sfp PPTase inh	TRPV1 PAM	PINK1 expr mod	CtBP-E1A blk
COc1ccc2[nH]c(=O)c(CN(C(=O)c3cccnc3)c3cccc(C)c3)cc2c1	-3	-2.5	4	19%	-1	2.3%	6
Cc1nc2c(-c3ccc(F)cc3)c(C)nn2c(C)c1CCC(=O)NCCN1CCOCC1	-9	-2.1	4	18%	10	-0.5%	-13
CC(=O)c1cccc(OCC(=O)Nc2cc(Cl)ccc2-n2cncn2)c1	1	4.8	-3	/	-5	0.7%	5
COC(=O)C[C@H]1C[C@H]2c3cc(NC(=O)NC4CCCC4)ccc3O[C@H]2[C@@H](CO)O1	4	-9.0	2	/	/	0.2%	5
O=C(CNc1ccc(Oc2ccccc2)cc1)N1CCOCC1	-4	-0.2	10	50µM*	8	0.6%	9
CC(C)Cn1c(N)c(C(=O)COC(=O)c2cc(F)cc(F)c2)c(=O)n(C)c1=O	0	8.7	-5	-5%	-3	-0.5%	/
COCCOC(=O)c1c(C)oc2ccc(OCc3cc(C(=O)OC)oc3C)cc12	-1	2.0	15	?	1	1.3%[38.3 µM]	46
CCOC(=O)CN1C(=O)CN(c2ccc(C)c(C)c2)C1=O	10	0.7	10	24%	-4	6.3%	2
C=C(C(=O)Oc1c(C(C)(C)C)cccc1C(C)(C)C)c1ccccc1	14	-0.5	7	/	-7	1.3%	-1
Cc1noc(C)c1COc1ccc(C(=O)N2CC(C)CC(C)C2)cc1 (stereo not given)	1	-1.2	1	/	-9	-0.2%	-2
COc1ccc(C(=O)NNC(=O)C23CC4CC(CC(C4)C2)C3)c(OC)c1	-5	-6.9	4	8%	?	8.4%	16
Cc1ccc(N2C(=O)C(F)(F)C2c2ccccc2)cc1 (stereo not given)	-3	-2.2	8	-12%	-3	3.5%	/
CC(=O)N[C@@H](CS)C(=O)O	-10	-5.3	-4	35µM*!	11	1.7%	5
CCc1cc2c(=O)c(-c3nc4ccccc4n3C)c(C)oc2c(CN2CCCCC2)c1O	-16	-4.4	2	7%	0	0.8%	/
CC(=O)NC1C(=O)N(CCc2ccccc2)c2ccccc21 (stereo not given)	-28	-5.1	-4	-15%	9	-0.2%	-1
Cc1ccc2nc(-c3cccnc3)cc(C(=O)N3CCN(c4ccc([N+](=O)[O-])cc4)CC3)c2c1	-16	-0.8	-9	12%	-3	9.0%	-2
CCOC(=O)c1c(-c2ccccc2)oc2ccc(O)cc12	1	-0.6	3	40µM*	-18	1.5%	/
O=C(CS(=O)(=O)Cc1ccccc1)N1CCc2ccccc2C1	-14	-0.7	7	7%	-4	0.0%	0
COc1ccc(OC)c(/C=N/NC(=O)C(O)c2ccccc2)c1 (stereo not given)	-10	-1.6	-5	4%	5	1.1%	-1
Cc1ccc(C)c(N2CCN(C(=O)COc3cc(=O)n(C)c4ccccc34)CC2)c1	-2	2.4	8	7%	7	2.9%	4
CC(C)CNS(=O)(=O)c1ccc(C(=O)Nc2ccc3c(c2)OCCO3)cc1	4	4.3	2	0%	8	?	5
CN(c1c(C#N)c(C(F)(F)F)nn1C)N(S(C)(=O)=O)S(C)(=O)=O	-3	1.6	10	?	?	3.0%	-10
CNC(=O)COC(=O)c1ccc([N+](=O)[O-])cc1Cl	17	4.6	6	2%	7	0.8%	21
CC1=C(C(=O)Nc2ccccc2)C(c2ccccn2)n2ncnc2N1 (stereo not given)	-11	-2.4	1	9%	28	2.7%	-2
O=C(CSc1nc2ccccc2c(=O)[nH]1)c1ccc(O)c(O)c1	2	2.3	-20	-13%	0	-1.7%	-2
